Screens from PubChem.
Mtb growth: M. tuberculosis H37Rv growth inhibitors, H37Rv strain (AID 1626). M. tuberculosis H37Rv growth inhibition; higher % means a stronger effect. inhibition, % at 10 µM, or IC50 in µM where a hit was titrated. 220,000 compounds, 0.95% hits;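 active = confirmed in a dose series; inconclusive = inhibition above 80% but not taken into the dose series; inactive = below 80% or under 30% at every dose of the series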;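 note: bacteria incubated seven days before Alamar blue readout; 0% = bacteria only wells and 100% = bacteria with antibiotic wells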
Arbovirus inh: antivirals against arbovirus infection, primary screen, cell-based, full library, 10K replicate subset; arbovirus infection cell-based antiviral screen; inhibition, % at 10 µM; 200,000 compounds, 0.37% hits; AID 1251, 2008;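 active = inhibition from about 30%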;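 note: bluetongue infection of BSR cells; cell survival read as ATP light after 72 h; 0% = infected wells without compound and 100% = uninfected wells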
RecA intein inh: Mtb RecA intein splicing inhibitors, primary screen, biochemical, fluorescence, HTS | inhibition, %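 (about 9 µM by stock and volumes)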 | AID 2221, 2009 | Protein RecA (Mycobacterium tuberculosis (strain ATCC 25618 / H37Rv)), P9WHJ3 | 290,000 compounds, 0.75% hits | cell-free RecA intein splicing; in the data active = inhibition above about 30%; inconclusive = no clear call, values can overlap the other calls;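 note: 0% = vehicle wells and 100% = reference inhibitor control wells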
Target sequence (P9WHJ3 whole entry, looked up): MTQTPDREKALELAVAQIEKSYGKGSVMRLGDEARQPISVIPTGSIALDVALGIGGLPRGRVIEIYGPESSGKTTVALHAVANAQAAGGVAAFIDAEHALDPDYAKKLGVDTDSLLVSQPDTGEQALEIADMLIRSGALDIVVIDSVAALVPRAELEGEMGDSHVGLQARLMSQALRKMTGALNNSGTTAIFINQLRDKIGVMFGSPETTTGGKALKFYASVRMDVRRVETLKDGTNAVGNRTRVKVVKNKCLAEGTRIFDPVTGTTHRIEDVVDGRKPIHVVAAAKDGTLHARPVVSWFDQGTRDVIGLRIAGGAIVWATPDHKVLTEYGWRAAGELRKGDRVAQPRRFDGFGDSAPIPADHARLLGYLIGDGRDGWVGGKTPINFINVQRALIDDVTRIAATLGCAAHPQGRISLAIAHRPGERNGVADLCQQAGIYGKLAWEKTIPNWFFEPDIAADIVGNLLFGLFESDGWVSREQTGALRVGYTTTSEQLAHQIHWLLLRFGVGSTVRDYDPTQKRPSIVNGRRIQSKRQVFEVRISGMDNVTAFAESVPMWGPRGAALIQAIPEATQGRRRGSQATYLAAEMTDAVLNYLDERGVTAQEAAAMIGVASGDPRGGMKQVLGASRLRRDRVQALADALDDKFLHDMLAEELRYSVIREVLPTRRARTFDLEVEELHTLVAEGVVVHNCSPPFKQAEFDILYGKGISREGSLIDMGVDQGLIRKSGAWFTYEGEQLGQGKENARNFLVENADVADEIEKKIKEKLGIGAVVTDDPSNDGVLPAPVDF
Mtb betalactam: beta-lactam sensitization of Mtb H37Rv, H37Rv; M. tuberculosis H37Rv growth with meropenem, percent inhibition; hits of this screen are not shown here; inhibition, % at 25 µM; 330,000 compounds, 0.27% hits; AID 434955, 2010;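 active = about 74% or more and at least 40 points above the plate without the antibiotic, then above 30% in a dose series; inconclusive = first-round hits that could not be retested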;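 note: growth measured after seven days incubation then overnight dye step; 0% = bacteria only wells and 100% = bacteria with antibiotic; twin plates without the antibiotic show which effects depend on it; some results filed as inactive read as strong as hits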
YopH PTP inh: YopH tyrosine phosphatase inhibitors, primary screen, biochemical, fluorescence Ex485/Em525 | YopH tyrosine phosphatase [Yersinia enterocolitica] | inhibition, %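 (about 10 µM by stock and volumes)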 | 140,000 compounds, 0.16% hits;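 active = inhibition of 50% or more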;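 note: controls were vehicle for no effect and minimum signal wells for full effect; inactives centre near -20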
Arbovirus inh repeat: further read-out of Arbovirus inh, marked with its call; inhibition, %; measured here: 10K subset replicate screen; many hits read low in the repeat;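 first of two repeat runs on a subset; 0% = infected and 100% = uninfected wells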
The depositor's hits bear a star; ? = inconclusive; · = no result given. A portion of the library; rates above refer to the full screens.

SMILES	Mtb growth	Arbovirus inh	RecA intein inh	Mtb betalactam	YopH PTP inh	others
O=C(c1ccccc1)C1CCN(CC(=O)N2CCN(c3ccccc3)CC2)CC1	-5%	-17	·	6	·
Cc1cc(C)cc(OCC(=O)N/N=C\c2cn(C)nc2C)c1	6%	6	1.7	-1	-24
CCOC(=O)C1CCCN(c2c(Nc3ccc(OCC)cc3)c(=O)c2=O)C1 (configuration not stated)	3%	13	-0.2	-1	-49
O=C(CSc1nc(-c2ccccc2Cl)ns1)NCc1ccco1	24%	-4	3.5	-10	-5
COc1cc(NC(=O)CCc2c(C)nc3nc(C)nn3c2C)cc(OC)c1	-6%	7	-2.8	-8	-22
CCn1c(CNc2ccc(F)cc2)nnc1SCC#N	-5%	-1	-3.4	1	·
CCSc1nnc(NC(=O)COc2ccc(Cl)cc2)s1	1%	3	-2.9	-5	·
O=C(Cc1ccc(Cl)cc1)NNC(=O)Nc1cccc2ccccc12	-9%	-15	1.3	-1	-14
CC(C)(C)C(=O)Nc1ccc(C(=O)NCc2cccnc2)cc1	2%	-3	2.3	9	2
CCN(CC)C1=N/C(=C\c2ccc(OC)cc2)C(=O)N1c1ccccc1	5%	-3	-7.2	-3	-10
CN=C(Nc1cc(C)nn1-c1ccccc1)c1ccccc1	-1%	3	4.5	4	-33
O=C(Nc1ccc(NC(=O)C2CC2)nc1)c1cccs1	9%	-5	-1.8	53	-5
C=CCNc1cc(C)oc(=O)c1C(=O)CCC	-8%	1	-1.7	0	-27
CN(C)CCCNC(=O)c1cc(C(=O)c2c(Cl)cccc2Cl)c[nH]1	·	·	-0.3	-4	·
COc1ccc(CCNC(=O)CN(C)S(=O)(=O)c2ccc(Br)s2)cc1OC	5%	5	-1.5	3	-5
Cc1cc(N(C)/N=C/c2ccccc2O)nc(-c2ccccc2O)n1	14%	19	-1.0	5	·
O=C(Cc1cccs1)N(CC1CCCO1)C1(C(=O)NC2CCCC2)CCCCC1 (configuration not stated)	5%	-15	-0.7	-7	·
Cn1ccnc1SCC(=O)c1ccc([N+](=O)[O-])cc1	0%	9	-2.3	-8	·
CC(C)c1ccc(-c2csc3nc[nH]c(=O)c23)cc1	·	·	2.0	14	·
COc1ccc(NC(=O)CSc2ccc3ccccc3c2)cc1S(=O)(=O)N1CCCCC1	2%	10	12	-16	-18
Cc1cc(C(F)F)n2nc(C(=O)O)nc2n1	-16%	3	1.2	1	-5
CN(C)CCOCCOc1ccc(Cl)cc1C(C)(C)C	-3%	-27	-0.7	-19	·
COc1ccccc1C(=O)Nc1ccc2c(c1)CCCN2C(=O)c1ccccc1	·	·	6.4	69	·
Cc1nnc(SCCN2C(=O)c3ccccc3C2=O)[nH]c1=O	-5%	3	0.4	0	-43
Cc1ccc2cc(CN(Cc3ccco3)C(=O)NCc3ccccc3)c(=O)[nH]c2c1C	2%	0	-2.7	-9	-30
CCn1nc(C)cc1C(=O)Sc1cccc(Br)c1	-5%	·	26	1	·
NS(=O)(=O)c1ccc(CCNC(=O)C2(S(=O)(=O)c3ccc(Cl)cc3)CC2)cc1	·	·	-0.5	3	·
COc1c(S(=O)(=O)NCCCn2ccnc2)ccc(Cl)c1Cl	·	·	1.4	0	·
Cc1ccc(/C=N/N(Cc2ccccc2)c2ccccc2)o1	8%	4	11	-7	·
O=C(NCCN1CCN(c2ccccc2F)CC1)C1CCCN(S(=O)(=O)c2cnc[nH]2)C1 (configuration not stated)	·	0	·	0	-46	Arbovirus inh repeat=4
O=C(NCCN1CCOCC1)c1cnn2c1NC(c1cccs1)CC2C(F)(F)F (configuration not stated)	-1%	4	-3.1	-3	·
COc1ccc(OC)c(-n2c(=S)[nH]c3cc(C(=O)N(C)Cc4ccccc4)ccc3c2=O)c1	-5%	3	1.8	-1	·
Cc1cc(NC(=O)CCSc2ccccc2)ccc1Br	?	5	11	98	-15
COc1ccc(C(=O)NCCNc2ccccc2[N+](=O)[O-])cc1	-5%	-15	0.3	-7	·
Cc1ccc(N2CCN(C(=S)c3ccc(N(C)C)cc3)CC2)cc1	-11%	11	-0.7	1	-14
Cn1nnnc1Sc1c(Cl)cccc1[N+](=O)[O-]	0%	5	-3.6	7	-16
COc1ccccc1Nc1nc2ccccc2n1C	2%	10	1.9	1	-45	Arbovirus inh repeat=0
O=C(COC(=O)c1c[nH]c(=O)[nH]c1=O)Nc1ccccc1F	2%	6	2.2	-3	·
N#C/C(=C\c1c(N2CCC(C(N)=O)CC2)nc2ccccn2c1=O)C(=O)NC1CCCCC1	·	·	0.0	-5	·
Cc1ccc(C(=O)O)cc1NC(=S)NC(=O)c1ccc([N+](=O)[O-])c(C)c1	8%	0	-2.4	-2	·
CCOC(=O)Cc1[nH]nc2c1C(c1cc(OC)ccc1OC)C(C#N)=C(N)O2 (configuration not stated)	-5%	-3	63*	0	0
COC(=O)C(C(=O)OC)C(C[N+](=O)[O-])c1ccc(O)c(OC)c1 (configuration not stated)	3%	-2	-2.6	5	-11
COCCOC(=O)C1=C(C)NC(=O)NC1c1cccc(F)c1 (configuration not stated)	·	·	1.5	-10	·
COc1ccc(NC(=O)C2CCN(S(=O)(=O)c3cccc4nonc34)CC2)c(OC)c1	·	·	-1.5	1	·
Cc1nonc1C(=O)N/N=C/c1ccc(O)cc1	-2%	11	-10.0	-5	-22
COc1ccc(-c2cc(C(=O)N3CCN(c4ccccc4)CC3)c3ccccc3n2)cc1OC	22%	-18	6.6	79	11
COc1ccc(Cn2c(SCC#N)nc3ccc(N4CCOCC4)cc3c2=O)cc1	5%	17	-2.0	7	·
Cc1ccc(N2CCN(S(=O)(=O)c3nnc(NC(=O)c4ccco4)s3)CC2)cc1	·	·	4.0	-2	·

Of the compounds above, these contain bromine.
SMILES	Mtb growth	Arbovirus inh	RecA intein inh	Mtb betalactam	YopH PTP inh	others
COc1ccc(CCNC(=O)CN(C)S(=O)(=O)c2ccc(Br)s2)cc1OC	5%	5	-1.5	3	-5
CCn1nc(C)cc1C(=O)Sc1cccc(Br)c1	-5%	·	26	1	·
Cc1cc(NC(=O)CCSc2ccccc2)ccc1Br	?	5	11	98	-15

Going on with the list.
SMILES	Mtb growth	Arbovirus inh	RecA intein inh	Mtb betalactam	YopH PTP inh	others
O=C(COc1ccc2c3c(c(=O)oc2c1)CCCC3)NC(Cc1ccc(Cl)cc1)C(=O)O (configuration not stated)	·	·	2.3	-1	·
COc1ccc(NC(=O)c2cc(C)no2)cc1OC	·	·	0.3	-1	·
Cc1cc(NC(=O)CCC(=O)N(c2ccccc2)C(C(=O)NC2CCCC2)c2ccc(F)cc2)no1 (configuration not stated)	·	·	1.8	0	·
O=C(Cn1c(CO)nc2ccccc21)Nc1cc(C(F)(F)F)ccc1N1CCOCC1	0%	19	-0.4	-2	-55
N#Cc1cc(C#N)c(N2CCN(c3ccccn3)CC2)nc1N	-7%	-4	-1.8	-12	-12
C=Cn1cc[n+](CC(=O)c2ccc(Br)s2)c1	·	·	-0.2	0	·
COc1ccccc1CCNC(=O)c1nccnc1C(=O)O	·	·	8.3	0	·
CCc1ccc(NC(=O)N2CCN(C(=O)C3CCCO3)CC2)cc1 (configuration not stated)	·	·	-1.2	-6	·
c1cncc(C(c2nnnn2C2CCCC2)N2CCN(Cc3ccc4c(c3)OCO4)CC2)c1 (configuration not stated)	-2%	-4	-2.0	-6	-31
Cn1c(=O)c2c(nc(NCc3ccco3)n2Cc2ccccc2Cl)n(C)c1=O	-9%	0	-3.2	-2	31
Cc1ccc2nc(SCCCCOc3ccccc3)[nH]c2c1	5%	-21	11	92	-52
COc1cccc(N=Cc2c(O)n(Cc3ccco3)c(=O)[nH]c2=O)c1	4%	-13	-3.3	5	·
CCN(CC)C(=O)CSc1nc2ccccc2n1CC(=O)N1CCN(c2ccccc2OC)CC1	8%	-3	-0.8	-8	-4
CCN1CCN(c2oc(-c3ccc(OC)cc3)nc2C#N)CC1	2%	·	-2.9	27	-47
Cc1cccc(CCNC(=O)c2oc3c(C)c(C)ccc3c2C)n1	·	·	2.4	0	·
CC(NS(=O)(=O)c1ccc(Br)cc1)C(c1cccs1)N1CCN(C)CC1 (configuration not stated)	2%	-19	-1.1	11	-31	Arbovirus inh repeat=-5
O=C(COc1ccc(Cl)cc1Cl)NN1C(=O)C2C3C=CC([C@@H]2C1=O)C31CC1 (some centres not stated)	-7%	·	2.3	-12	·
CCOC(=O)C1=C(C)NC(C)=C(C(=O)OCC)C1c1cccc(C)n1	-2%	·	-1.6	-3	·
Cc1nn(C)c(C)c1NS(=O)(=O)c1cccc(Br)c1	·	·	-3.7	-6	·
CC(C)(C)c1ccc(OC(=O)N2CCOCC2)cc1	·	·	-1.4	4	·
CC(CC(=O)NCc1ccco1)S(=O)(=O)c1ccc2c(c1)CCN2C(=O)C1CC1 (configuration not stated)	·	·	-1.0	?	·
CCOC(=O)c1ccc(NC(=O)[C@@H](NC(N)=O)C(C)C)cc1	-1%	·	2.1	-2	·
Cc1cc2oc(C(=O)N(Cc3ccc(N(C)C)cc3)CC3CCCO3)c(C)c2cc1C (configuration not stated)	·	·	11	4	·
O=C(COC(=O)c1ccccc1C(=O)c1ccccc1)c1ccco1	-6%	0	-4.7	-15	11
COc1ccc(S(=O)(=O)NCCC(C)C)cc1C	1%	1	2.0	94	-14
CC(=O)c1cccc(-n2nnnc2SCC(=O)Nc2cc(C)on2)c1	·	·	0.7	-5	·
O=C(CN(Cc1ccc(F)cc1)C(=O)C1CSC(=O)C1)NC1CCCCC1 (configuration not stated)	-1%	6	-1.3	0	-30
CCOc1cc(/C=C2\SC(N3CCCC(C)C3)=NC2=O)ccc1O (configuration not stated)	·	·	-4.7	7	·
CCOC(=O)N1CCN(C(=O)Nc2ccc(Cl)cc2Cl)CC1	-7%	19	1.9	-11	-28

20 compounds out of the list, sorted by SMILES length, ascending:
SMILES	Mtb growth	Arbovirus inh	RecA intein inh	Mtb betalactam	YopH PTP inh	others
CCn1c(CNc2ccc(F)cc2)nnc1SCC#N	-5%	-1	-3.4	1	·
Cc1nonc1C(=O)N/N=C/c1ccc(O)cc1	-2%	11	-10.0	-5	-22
CN(C)CCOCCOc1ccc(Cl)cc1C(C)(C)C	-3%	-27	-0.7	-19	·
C=Cn1cc[n+](CC(=O)c2ccc(Br)s2)c1	·	·	-0.2	0	·
O=C(CSc1nc(-c2ccccc2Cl)ns1)NCc1ccco1	24%	-4	3.5	-10	-5
N#Cc1cc(C#N)c(N2CCN(c3ccccn3)CC2)nc1N	-7%	-4	-1.8	-12	-12
Cc1cc(C)cc(OCC(=O)N/N=C\c2cn(C)nc2C)c1	6%	6	1.7	-1	-24
Cc1cccc(CCNC(=O)c2oc3c(C)c(C)ccc3c2C)n1	·	·	2.4	0	·
O=C(Cc1ccc(Cl)cc1)NNC(=O)Nc1cccc2ccccc12	-9%	-15	1.3	-1	-14
COc1ccc(C(=O)NCCNc2ccccc2[N+](=O)[O-])cc1	-5%	-15	0.3	-7	·
O=C(COC(=O)c1c[nH]c(=O)[nH]c1=O)Nc1ccccc1F	2%	6	2.2	-3	·
CCOC(=O)c1ccc(NC(=O)[C@@H](NC(N)=O)C(C)C)cc1	-1%	·	2.1	-2	·
CN(C)CCCNC(=O)c1cc(C(=O)c2c(Cl)cccc2Cl)c[nH]1	·	·	-0.3	-4	·
O=C(CN(Cc1ccc(F)cc1)C(=O)C1CSC(=O)C1)NC1CCCCC1 (configuration not stated)	-1%	6	-1.3	0	-30
COc1ccc(CCNC(=O)CN(C)S(=O)(=O)c2ccc(Br)s2)cc1OC	5%	5	-1.5	3	-5
COC(=O)C(C(=O)OC)C(C[N+](=O)[O-])c1ccc(O)c(OC)c1 (configuration not stated)	3%	-2	-2.6	5	-11
CCOC(=O)Cc1[nH]nc2c1C(c1cc(OC)ccc1OC)C(C#N)=C(N)O2 (configuration not stated)	-5%	-3	63*	0	0
COc1ccc(NC(=O)CSc2ccc3ccccc3c2)cc1S(=O)(=O)N1CCCCC1	2%	10	12	-16	-18
O=C(COc1ccc(Cl)cc1Cl)NN1C(=O)C2C3C=CC([C@@H]2C1=O)C31CC1 (some centres not stated)	-7%	·	2.3	-12	·
N#C/C(=C\c1c(N2CCC(C(N)=O)CC2)nc2ccccn2c1=O)C(=O)NC1CCCCC1	·	·	0.0	-5	·
